# Screening data: PubChem BioAssay, National Center for Advancing Translational Sciences (NCATS)
# 2A StopGo: FMDV 2A StopGo reporter, luciferase signal; 410,000 tested, 1.2% active; Potency, µM (titrated, usually from 57.9 µM), for inactives: top-dose signal change, negative = less light; human cells with a luciferase reporter of 2A StopGo recoding; control for the full effect not named in the record; active = well fitted falling curve with a large enough effect; inconclusive = small, poorly fitted or top-dose-only effect; inactive = no such curve, though single readings can be large or run the other way; tested in HEK293T cells; note: % is set by controls: 0 for no effect and ±100 for the full control effect; nearly all actives have a fitted effect of over 45% in size; luciferase light after 4 h
# NS1 function inh: blocks influenza NS1 protein function. Potency, µM (highest dose often 46.1 µM), without a hit: at the top dose activity, positive = more growth. 270,000 tested, 0.4% active. AID 2326. S. cerevisiae slowed by influenza A NS1, growth recovery by OD600; active means well fitted rising curve with a large enough effect; inconclusive means small, poorly fitted or top-dose-only effect; inactive means no such curve, though single readings can be large or run the other way; note: nearly all actives have a fitted effect of over 50% in size
#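 Read-out: OD600 growth recovery of NS1-expressing budding yeast. Cells grown overnight at 30C in -URA glucose medium, washed, resuspended and diluted 1:100 in 2% galactose assay medium, pH 6.0. Same strain lacking NS1 served as positive control.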
# SARS PLP yeast: blocks SARS-CoV papain-like protease in a yeast assay | Potency, µM (titrated, usually from 32.9 µM), for inactives: at the top dose activity, positive = growth rescue | S. cerevisiae expressing SARS-CoV PLpro, growth rescue; control for the full effect not named in the record | 330,000 tested, 0.19% active; active means well fitted rising curve with a large enough effect; inconclusive means small, poorly fitted or top-dose-only effect; inactive means no such curve, though single readings can be large or run the other way; note: 0% is about no effect; nearly all actives have a fitted effect of over 55% in size; growth read by luminescence after 48 h
# MARV entry inh: blocks Marburg virus binding to or entry into cells | AID 540276 | Marburg virus pseudotyped entry inhibition, cell reporter; control for the full effect not named in the record; about a third of the inactives were read at about 46 µM | 300,000 tested, 1.8% active | Potency, µM (titrated, usually from 37.8 µM), without a hit: at the highest dose activity change, negative = inhibition, hits mostly inhibitors; active = well fitted inhibition curve with a large enough effect; inconclusive = small, poorly fitted or top-dose-only effect, or effect the other way; inactive = flat fitted curve, though single readings scatter; tested in HEK293 cells; about a fifth of its hits are not listed in these tables; note: % is set by controls: 0 for no effect and ±100 for the full control effect; luciferase read-out
# Cruzain Triton: inhibitors of Trypanosoma cruzi cruzain with detergent. P25779. purified cruzain, Z-FR-AMC fluorescence, 0.01% Triton. Potency, µM, for inactives: max response, negative = inhibition, most hits filed as inhibitors. 200,000 tested, 0.43% active. AID 1478;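 note: plate controls were neutral wells for no effect and buffer without enzyme for full effect; nearly all actives have a fitted effect of over 40% in size; top concentration of the series not given in the record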
# Target sequence (P25779 123-467 limits assumed): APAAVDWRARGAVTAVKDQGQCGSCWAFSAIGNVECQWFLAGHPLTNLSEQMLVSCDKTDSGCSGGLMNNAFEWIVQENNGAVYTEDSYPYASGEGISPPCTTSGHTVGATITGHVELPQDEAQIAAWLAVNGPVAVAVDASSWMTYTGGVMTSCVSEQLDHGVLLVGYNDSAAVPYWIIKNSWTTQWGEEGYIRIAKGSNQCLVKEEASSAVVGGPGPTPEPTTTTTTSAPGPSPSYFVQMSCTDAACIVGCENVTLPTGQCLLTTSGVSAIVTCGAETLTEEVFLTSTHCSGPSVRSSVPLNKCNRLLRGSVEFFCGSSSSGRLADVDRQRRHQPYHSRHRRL
#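 15 min RT preincubation of 1.5 nM cruzain with compound, then 2 uM Z-FR-AMC added; kinetic AMC fluorescence, 60 s delta. Triton X-100 0.01%, pH 5.5.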
# Cruzain noTriton: inhibitors of Trypanosoma cruzi cruzain without detergent; P25779; purified cruzain, Z-FR-AMC fluorescence, no detergent; Potency, µM, for the others: max response, negative = inhibition, usual class: inhibitors; 200,000 tested, 2.3% active; AID 1476;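 note: plate controls were enzyme without inhibitor for no effect and buffer without enzyme for full effect; nearly all actives have a fitted effect of over 40% in size; top concentration of the series not given in the record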
#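 Detergent-free condition (0.00005% Triton X-100) in acetate buffer pH 5.5 with DTT. 1.5 nM enzyme and compound were pre-mixed 15 min, then 2 uM Z-FR-AMC substrate added; reaction progress from fluorescence change between first and third reads (60 s).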
# RE007 growth inh: less growth of the S. pombe RE007 Vpr strain. AID 651644. S. pombe RE007 Vpr strain, BacTiter-Glo ATP luminescence, 24 h; control for the full effect not named in the record. 360,000 tested, 0.21% active. Potency, µM (titrated, usually from 92.2 µM), for the others: at the top dose activity change, negative = less growth; active = well fitted falling curve with a large enough effect; inconclusive = small, poorly fitted or top-dose-only effect; inactive = no such curve, though single readings can be large or run the other way;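 note: % is set by controls: 0 for no effect and ±100 for the full control effect; nearly all actives have a fitted effect of over 50% in size; the assay follows cell death caused by Vpr and the record does not say whether a fall means rescue or toxicity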
#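 Fission yeast RE007 carrying one integrated HIV-1 vpr copy, seeded at OD 0.01 in PMG+AL medium with 23 nL pinned compound. Grown 24 h at 30 degrees; viability read by BacTiter-Glo luminescence after 5 min.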
# LASV entry inh: Lassa virus entry inhibition; Potency, µM (doses to about 37.9 µM), for inactives: at the top dose activity change, negative = inhibition, hits mostly inhibitors; Lassa virus pseudotype entry inhibition, cell reporter; control for the full effect not named in the record; AID 540256; 300,000 tested, 1.2% active; active means well fitted inhibition curve with a large enough effect; inconclusive means small, poorly fitted or top-dose-only effect, or effect the other way; inactive means flat fitted curve, though single readings scatter; tested in HEK293 cells; note: % is set by controls: 0 for no effect and ±100 for the full control effect; nearly all actives have a fitted effect of over 50% in size; luciferase read-out
# * = called active by the depositor; u = inconclusive; x = not tested or not shown; & = joins results of further samples; [ ] = remark or other dose. Unless noted, calls come from the whole dose curve; as a rule, active = well fitted curve in the direction sought with a large enough effect; inconclusive = small, poorly fitted or top-dose-only effect, or another doubt; inactive = no such curve, though single readings can be large; an effect the other way counts as inactive or inconclusive. Potency is the fitted concentration of half-maximal effect.
SMILES,2A StopGo,NS1 function inh,SARS PLP yeast,MARV entry inh,Cruzain Triton,Cruzain noTriton,RE007 growth inh,LASV entry inh
COC(=O)c1ccccc1NC(=O)N1c2ccccc2CC1C (stereo not given),-26%,-16%,-21%,-9%,-1.7%,0%,-22%,-6%
CCCCn1c(N)c(N(CCOC)C(=O)c2ccc(N3C(=O)CCC3=O)cc2)c(=O)[nH]c1=O,-15%,x,u,16%,x,x,4%,10%[46.1 µM]
COc1ccc(N(CC(=O)NCCc2ccccc2)S(=O)(=O)c2c(C)nn(C)c2C)cc1,-3%,x,x,1%[46.1 µM],-0.6%,u,x,-18%[46.1 µM]
CC1C(C#N)=C(N)OC2=C1C(=O)CC(C)(C)C2 (stereo not given),2%,-2%,4%,-2%,3.4%,-11%,35%,12%
CCOC(=O)c1ccc(N2C(=O)c3n[nH]c(C)c3C2c2ccccc2)cc1 (stereo not given),-7%,-44%,0%,u,-2.2%,1%,10%,-20%
CC(=O)Nc1ccc(NC(=O)C(C)OC(=O)C2CCN(S(=O)(=O)c3ccc4c(c3)OCCO4)CC2)cc1 (stereo not given),-5%,x,0%,-4%,x,x,-14%,11%
CCOC(=O)c1cc2c(=O)n3ccccc3nc2n(Cc2ccco2)c1=NC(=O)c1ccc(F)cc1,1%,x,x,-18%[46.1 µM],-23%,-19%,x,28%[46.1 µM]
CN(C)C(=O)CN1C(=O)C2CCCCN2C(=O)c2ccccc21 (stereo not given),-11%,1%,0%,11%,2.9%,1%,-1%,0%
COCCCNC(=O)CN1C(=O)COc2ccc(S(=O)(=O)N3CCOCC3)cc21,8%&9%,3%,-1%,-1%[46.1 µM],6.5%,6%,2%,14%[46.1 µM]
COc1cccc(C(=O)N(C)c2nnc(-c3ccncc3)s2)c1,3%,0%,3%,4%,-0.4%,2%,1%,-18%
Cc1cc(N2CCCC2=O)cc(C)c1S(=O)(=O)Nc1c(C)nn(C)c1C,-16%,x,0%,7%[46.1 µM],x,x,1%,-6%[46.1 µM]
COc1ccc(/C=C/C2=CC(C)(C)NC(=S)N2)c(OC)c1,-1%,21%,2%,u,x,x,6%,u
COc1ccc2c(c1)CCC/C2=N\NC(=O)c1ccoc1C,23%,21%,3%,u,-4.6%,12%,-6%,u
Cc1c(NC(=S)NC(=O)CC(C)C)c(=O)n(-c2ccccc2)n1C,6%,x,-4%,12%,x,x,-1%,u
CCN(CC)CCCNC(=O)c1cc2c(=O)n(C)c3ccccc3c2n1C,-20%,4%,2%,x,-3.7%,2%,-12%,x
COC(=O)c1c(NC(=O)c2nc(SCc3ccc(F)cc3)ncc2Cl)sc2c1CCCC2,86%[activator],x,x,16%[46.1 µM],0.0%,26%,x,1%[46.1 µM]
Cc1ccccc1-n1c(CSC(=N)N)nc2ccccc2c1=O,-1%,18%,2%,u,1.0%,7%,-9%,-20%
CCOC(=O)N1CCN(C(=O)c2oc3ccc(S(=O)(=O)N4CCCCCC4)cc3c2C)CC1,-21%,-17%,0%,-19%&-19%,-0.2%,u,-6%,u
Cc1ccc(C)c(CN2C(=O)c3ccccc3S(=O)c3ccc(C(=O)NCCCN4CCCC4)cc32)c1 (stereo not given),-5%,17%,3%,x,x,x,-2%,x
COC(=O)c1sccc1NC(=O)CC1C(=O)NCCN1C(=O)c1ccc(C)c(C)c1 (stereo not given),-8%,5%,-1%,0%[14.2 µM],x,x,1%,1%
CCc1ccc(Oc2cc(Cl)nc(N)n2)cc1,36%[activator],4%,3%,u,-0.4%,-8%,-3%,3%
Cn1nc(-c2ccc(Cl)cc2)nc2c(=O)n(C)c(=O)nc1-2,x,-60%,-43%,0%,1.6µM*,1.6µM*,x,x
COc1ccc(-n2nc(C(=O)NCC(=O)NC3CCCCCC3)c3ccccc3c2=O)cc1OC,-20%,0%,-1%,-5%[46.1 µM],x,x,-20%,-5%
C/C(=N/NC(=O)CNC(=O)c1ccccn1)c1ccc([N+](=O)[O-])cc1,2%,x,2%,u,x,x,-10%,-7%[46.1 µM]
COc1ccc(C2(C(=O)Nc3ccc(S(N)(=O)=O)cc3)CCCC2)cc1,u,-2%,1%,3%[46.1 µM],x,x,-8%,-3%
O=C(Nc1ccc(S(=O)(=O)N2CCOCC2)cc1)c1cc(-c2ccccc2O)n[nH]1,0%,-1%,-1%,x,x,x,0%,x
CSCCC(C(=O)NCc1cccs1)N1C(=O)c2ccccc2C1=O (stereo not given),32%[activator],4%,2%,1%,0.1%,-20%,-4%,4%
COc1ccc(C(=O)Nc2ccccc2C(=O)NC(Cc2ccc(O)cc2)C(=O)NNC(=O)c2ccc(C)cc2)cc1 (stereo not given),-9%,15%,8%,11%,-5.0%,-23%,-4%,-6%
CC(C)=CC(=O)O[C@H]1[C@@H]2[C@H](C)C(=O)O[C@@H]2C[C@@H](C)[C@@H]2[C@@H](O)CC(=O)[C@]21C,u,u,-2%,x,x,x,2%,x
CCOCC(=O)Nc1nc2ccccc2s1,35%[activator],1%,3%,5%,-0.8%,-7%,u,u
O=C(N=Nc1c(O)[nH]c2ccc(Br)cc12)c1cc(-c2cccc3ccccc23)n[nH]1,7%,25%,14%,-24%,-2.9%,10µM*,6%,-1%
Cc1ccc(S(=O)(=O)N2CCOCC2)cc1NC(=O)CSc1cccc[n+]1[O-],-19%,-3%,-17%,-1%,-2.3%,2%,3%,4%
COC(=O)/C=C1\N/C(=N\c2nc(C)cc(C)n2)N(c2ccc(C)c(C)c2)C1=O,25µM*,12%,15%,-16%,-4.0%,-5%,32%,u
COc1ccc(C(=O)Nc2ccccc2-c2nnn(CC(=O)Nc3ccc4c(c3)OCCO4)n2)cc1,0%,20%,-4%,-6%,1.8%,u,6%,22%
O=C(COC(=O)c1ccc(CO)cc1)NCc1cccs1,13%,19%,18%,-9%,-1.7%,-6%,5%,4%
O=S(=O)(NC1=NCCCCC1)c1cccs1,-20%,7%,0%,2%,1.1%,-8%,3%,3%
CC(=O)Nc1ccc(C=CC=Cc2cccc([N+](=O)[O-])c2)cc1,2%,x,x,u,x,x,u,u
Cc1cc(C)n2ncc(/C(N)=N/OC(=O)Nc3ccccc3)c2n1,0%,2%,0%,-14%,x,x,-7%,0%
COC(=O)CN1C(C(=O)c2ccccc2)=C(OC(=O)c2ccccc2)c2ccccc2S1(=O)=O,-23%,x,x,-4%[46.1 µM],-5.1%,-14%,x,19%[46.1 µM]
CC(=O)C1=C(O)C(=O)N(c2ccc(S(=O)(=O)Nc3nccs3)cc2)C1c1ccc(F)cc1 (stereo not given),4%,8%,0%,6%[46.1 µM],x,x,-7%,9%
Cc1ccc(C(=O)NCC(=O)N(C)CC(=O)Nc2ccccc2Br)s1,-6%,x,11%,1%,x,x,9%,3%
COc1ccc(S(=O)(=O)NCc2ccc(C(=O)N3CCc4ccccc4C3)cc2)cc1,0%,-10%,7%,-1%,-0.9%,3%,1%,-12%
CC(=C/c1ccc(C(C)C)cc1)/C=N/NC(=O)Cn1nnnc1N,-5%,11%,-1%,1%[46.1 µM],x,x,-3%,19%
O=C(Cc1ccccc1)Nc1ccc(NC(=O)c2ccco2)cc1Cl,13%,u,2%,3%[46.1 µM],x,x,-6%,-21%[46.1 µM]
Nc1nonc1-c1nc2ccccc2n1Cc1c(Cl)cccc1Cl,0%,x,x,x,-4.2%,25µM*,x,0%[46.1 µM]
Cc1ccc(C(=O)NCCSCc2ccccc2)cc1[N+](=O)[O-],-26%,-13%,-13%,0%,-7.1%,-2%,x,2%
Cc1cc(C)cc(Nc2cc(-c3ccccc3)nc(C)n2)c1,u,x,x,u,-14%,-3%,x,1%[46.1 µM]
COc1ccc(C(=O)NCc2nnc(SCC(=O)Nc3cc(C)on3)o2)cc1OC,-12%,8%,0%,0%,x,x,-5%,u
CCOC(=O)c1cc(-c2ccc(OC(F)F)cc2)nc2nc(SC)[nH]c(=O)c12,-6%,7%,6%,u,-3.8%,5%,-9%,-21%[46.1 µM]
O=C(CCCC(=O)N(CC(=O)NC1CCCCC1)c1ccc(F)cc1)Nc1ccccn1,48%[activator],8%,-1%,u,x,x,-5%,-30%[46.1 µM]
Nc1nc(Nc2ccccc2)nc(NCc2ccccc2)c1[N+](=O)[O-],u,-13%,0%,u,x,x,8%,u
CCOC(=O)c1c(C)[nH]c(C)c1C(=O)CN1C(=O)NC2(CCC(C)CC2)C1=O (stereo not given),-25%,-1%,4%,20%,-1.0%,-6%,-1%,-7%
Cc1csc(CN(C)C(=O)CC2C(=O)NCCN2Cc2ccc(-c3ccccc3)cc2)n1 (stereo not given),u,2%,0%,u,x,x,6%,2%
CC(=O)Nc1c(C)nn(-c2ccccc2)c1N1CCC(C(=O)Nc2cc(F)ccc2F)CC1,-15%,x,x,x,-0.1%,15%,x,16%[46.1 µM]
CCOCCOC(=O)NCCCCCCNC(=O)OCCOCC,-19%,2%,1%,x,x,x,1%,x
Cc1cc(NS(=O)(=O)c2ccc(NC(=O)Nc3cccc(Cl)c3)cc2)no1,23%,-10%,9%,u,-24%,4%,9%,-3%
C=C1C(C(=O)N2CCOCC2)C1C(=O)N1CCOCC1 (stereo not given),x,0%,-1%,1%,7.2%,1%,1%,22%
CN1CCN(C(=O)c2cc3c(n(-c4ccccc4)c2=O)CC(C)(C)CC3=O)CC1,13%,-1%,-4%,12%,-0.1%,-15%,39%,15%
CC/C(=N\NC(=O)c1nnn(-c2nonc2N)c1-c1ccc2c(c1)OCO2)c1ccccc1,-8%,14%,9%,x,x,x,-2%,x

# A portion of the results above, for reference:
SMILES,2A StopGo,NS1 function inh,SARS PLP yeast,MARV entry inh,Cruzain Triton,Cruzain noTriton,RE007 growth inh,LASV entry inh
Nc1nonc1-c1nc2ccccc2n1Cc1c(Cl)cccc1Cl,0%,x,x,x,-4.2%,25µM*,x,0%[46.1 µM]
Cc1ccc(C(=O)NCCSCc2ccccc2)cc1[N+](=O)[O-],-26%,-13%,-13%,0%,-7.1%,-2%,x,2%
